High-throughput results: PubChem BioAssay, National Center for Advancing Translational Sciences (NCATS)
Six1-Eya2 blk: qHTS Assay for Inhibitors of the Six1/Eya2 Interaction; activity change, % (no concentration beside the values); 360,000 tested, 0.56% active; AlphaScreen GST-Six1/His-Eya2 binding, biochemical; active compounds read low; control for the full effect not named in the record; AID 651725, 2012; in the data active = activity change below about -65%; inconclusive = about -30% to -65%; inactive = above about -30%; further: on the % scale 0 is the no-effect control and ±100 the full control effect
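GST-Six1 + His-Eya2 (5X stock: 250/500 nM); Tris pH 8.0, 300 mM NaCl, 0.05% BSA, 0.02% Tween 20; GSH donor/Ni acceptor beads; 1 h 37 °C dark; AlphaScreen readout.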
TRPML1 ag: qHTS for Agonists of the Human Mucolipin Transient Receptor Potential 1 (TRPML1) | Mucolipin-1 (Homo sapiens), Q9GZU1 | TRPML1-expressing cells, Ca2+ dye fluorescence, FDSS; host cell line not named in the record; reference of the full effect not given here | activation, % (no concentration beside the values) | 410,000 tested, 0.12% active | AID 624414, 2012; in the data active = activation above about 50%; inconclusive = about 30% to 50%; inactive = below about 30%; further: 0% is about no effect; the text of the record puts the active cut at 80%
Target sequence (Q9GZU1 whole entry, looked up): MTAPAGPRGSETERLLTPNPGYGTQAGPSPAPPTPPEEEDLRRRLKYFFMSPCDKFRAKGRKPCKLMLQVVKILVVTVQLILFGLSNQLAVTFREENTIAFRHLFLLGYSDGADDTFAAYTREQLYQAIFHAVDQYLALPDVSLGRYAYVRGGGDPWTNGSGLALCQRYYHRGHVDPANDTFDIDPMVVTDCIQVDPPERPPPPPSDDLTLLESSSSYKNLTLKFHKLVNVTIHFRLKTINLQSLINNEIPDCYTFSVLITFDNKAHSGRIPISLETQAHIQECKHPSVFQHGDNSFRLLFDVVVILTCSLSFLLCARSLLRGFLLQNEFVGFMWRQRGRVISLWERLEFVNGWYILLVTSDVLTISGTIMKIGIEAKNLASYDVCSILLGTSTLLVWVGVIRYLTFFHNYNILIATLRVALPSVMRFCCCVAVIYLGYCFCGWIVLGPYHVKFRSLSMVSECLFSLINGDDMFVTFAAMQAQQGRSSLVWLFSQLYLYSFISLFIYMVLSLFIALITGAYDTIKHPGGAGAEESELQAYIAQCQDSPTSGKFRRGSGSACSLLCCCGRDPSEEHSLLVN
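Calcium fluorescence on an FDSS kinetic reader gave the read-out. Tet-induced TRPML1-DL cells were plated overnight, dye-loaded (Ca8 with quencher, 45-90 min, room temperature, dark), then read 110 s after compound addition, and again 110 s after 4uM final 54-4 (EC80).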
CtBP-E1A blk: qHTS Assay for Inhibitors of the CtBP/E1A Interaction. AID 651724, 2012. AlphaScreen GST-E1A/His-CtBP binding, 1536-well; active compounds read low; control for the full effect not named in the record. CtBP / adenovirus E1A interaction (AlphaScreen). activity change, % (test concentration not listed). 340,000 tested, 0.49% active; in the data active means activity change below about -65%; inconclusive means about -30% to -65%; inactive means above about -30%; further: on the % scale 0 is the no-effect control and ±100 the full control effect
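Steps: dispense buffer (Tris pH 8.0, NaCl 300 mM, TCEP 1 mM, BSA, Tween 20); add 5X protein mix (GST-E1A, His-CtBP, 125 nM each); pin 23 nL compound; 2 h at 37 °C, dark; add 5X beads (50 ug/mL); 1 h; read.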
D2 potentiator: Beta-Arrestin HTS for Positive Allosteric Modulators of the Human D2 Dopamine Receptor: Potentiators. D(2) dopamine receptor (Homo sapiens), P14416. DiscoveRx D2 beta-arrestin cells, luminescence, 90 min; 100% = 57 uM dopamine signal. potentiation, % (no concentration beside the values). 360,000 tested, 0.23% active; active = potentiation of 50% or more; inconclusive = 30% to 50%; inactive = 30% or less;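 further: compound concentration not given in the record; tested on top of an EC20 dose of dopamine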
Target sequence (P14416 whole entry, looked up): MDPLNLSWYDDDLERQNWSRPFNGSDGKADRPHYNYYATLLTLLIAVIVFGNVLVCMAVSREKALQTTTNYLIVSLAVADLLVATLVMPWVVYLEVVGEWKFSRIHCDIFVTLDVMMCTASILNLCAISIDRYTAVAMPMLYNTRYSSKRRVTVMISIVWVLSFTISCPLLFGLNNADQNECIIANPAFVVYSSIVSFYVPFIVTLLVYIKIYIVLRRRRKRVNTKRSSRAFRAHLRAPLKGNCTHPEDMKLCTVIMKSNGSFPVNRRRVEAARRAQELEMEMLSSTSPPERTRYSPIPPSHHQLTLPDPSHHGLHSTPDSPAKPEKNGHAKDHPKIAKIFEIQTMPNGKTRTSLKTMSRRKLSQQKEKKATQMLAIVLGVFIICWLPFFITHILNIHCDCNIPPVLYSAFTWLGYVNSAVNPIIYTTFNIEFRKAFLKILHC
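PathHunter D2 cells, attached overnight at 37 deg C, received compound in DMSO plus dopamine at EC20 (50 nM final) for 90 min at 37 deg C. Beta-arrestin recruitment was read as luminescence after 1 h with detection reagent at ambient temperature.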
D2 agonist: Beta-Arrestin HTS for Positive Allosteric Modulators of the Human D2 Dopamine Receptor: Agonists. 360,000 tested, 0.084% active. AID 624465, 2012. D(2) dopamine receptor (Homo sapiens), P14416. activation, % (no concentration beside the values). DiscoveRx PathHunter D2 beta-arrestin, luminescence, 90 min; 100% = 57 uM dopamine signal; in the data active = activation above about 40%; inconclusive = about 15% to 40%; inactive = below about 15%; further: compound concentration not given in the record; the text of the record calls up to 30% inactive
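Agonist mode: compounds alone added to overnight-plated D2 PathHunter cells for 90 min at 37 C, with 57 uM final dopamine (EC100) defining full response. Beta-arrestin recruitment detected by chemiluminescent reagent, read after 1 h at ambient temperature.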
PINK1 expr mod: A Quantitative High throughput Screen to Identify Chemical Modulators of PINK1 Expression. PINK1 immunofluorescence, high-content cytometry, 24 h. Potency, µM (titrated, usually from 76.6 µM), for inactives: at the highest dose activation (PINK1 increase), actives largely listed as activators. 410,000 tested, 0.2% active. AID 624263, 2012; active = well fitted activation curve with a large enough effect; inconclusive = small, poorly fitted or top-dose-only effect; inactive = flat fitted curve, though single readings scatter; cell line not stated here;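 further: potency means the concentration at half of the fitted maximal effect; % of control where 0% means no effect; nearly all actives have a fitted effect of over 65% in size; a mitochondrial uncoupler was the plate control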
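Stable cell line treated 24 h with compounds at 5 concentrations (CCCP controls), then fixed and immunostained for PINK1 plus nuclear and cell stains; PINK1 immunofluorescence quantified by laser-scanning microplate cytometry.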
* hit, by the source's call; u = inconclusive; x = no result given; [ ] = another dose, or the depositor's remark.

The line under a structure holds: Six1-Eya2 blk	TRPML1 ag	CtBP-E1A blk	D2 potentiator	D2 agonist	PINK1 expr mod
> CCOC(=O)c1c(C)nn(-c2ccc(NC(=O)c3cccs3)cc2)c1C
 : -3	1.1	-3	18	0.5	-1.1%
> COc1ccc(CC(=O)Nc2ccc(N3CCOCC3)cc2)cc1OC
 : 4	-0.4	x	-15	0.6	1.0%
> C1CSC2(N1)C1CC3CC(C1)CC2C3 (configuration not stated)
 : -7	-0.6	-1	-7	-3.8	2.8%
> Clc1ccc(NCc2cccnc2)c(Cl)c1
 : -15	-1.2	-5	-12	-5.7	4.0%
> CCOC(=O)c1cnn(-c2nc(-c3ccccc3)cs2)c1C(F)(F)F
 : 65	3.7	57	-9	1.4	15%
> CCC[C@@H](CN1CCC[C@H]1CN1C(N)=NC[C@H]1C(C)C)N1C[C@@H](Cc2ccccc2)N(CCCC2CCCC2)C1=N
 : -1	-0.7	-5	x	-2.2	0.6%
> CC(C)(C)c1cc(C(c2cccnc2)N2CCN(CCO)CC2)cc(C(C)(C)C)c1O (configuration not stated)
 : -3	1.8	4	-3	0.8	4.8%[38.3 µM]
> CC12CCC(=O)N1C(C(=O)N1CCN(S(=O)(=O)c3cccc(C(F)(F)F)c3)CC1)CS2 (configuration not stated)
 : -1	-0.6	10	-9	1.5	-0.5%
> COc1ccc(N(C(=O)c2ccco2)C(C(=O)NC2CCCC2)c2cccs2)c(OC)c1 (configuration not stated)
 : 9	1.4	1	-8	-3.5	1.0%
> Cc1nn(-c2ccc(Cl)cc2)c(Cl)c1/C=C(\C#N)C(N)=O
 : 3	-0.8	-3	-11	-4.6	2.0%
> CCOC(=O)c1csc(NC(=O)C2=COCCO2)n1
 : 1	0.2	0	-1	1.8	-0.1%
> O=C(NCCOc1ccc(Cl)cc1)C1CCCCC1
 : 9	0.4	9	-2	2.5	0.9%
> Oc1ccc(C[C@H]2CNC(=S)N2CC2CCCN2C[C@H](Cc2ccc(O)cc2)N2C[C@H](Cc3ccc(O)cc3)N(CC3CCCCCC3)C2=S)cc1 (some centres not stated)
 : -9	-0.6	-2	-2	-2.2	0.2%
> COc1ccc(S(=O)(=O)N2Cc3ccccc3CC2C(=O)Nc2nccs2)cc1OC (configuration not stated)
 : 3	0.6	-1	1	4.5	-1.6%
> COc1cccc(-c2ccc(C3=CC(=O)CC(C)(C)C3=O)cc2)c1OC
 : -18	1.4	-10	5	-4.3	0.9%
> O=C(NNC(=O)C1C2CCCCC21)c1coc(=O)c(Br)c1 (configuration not stated)
 : -23	6.5	-5	6	2.1	1.3%
> COC(=O)NC1(C(F)(F)F)C(=O)Nc2c1c(=O)n(C)c(=O)n2C (configuration not stated)
 : 7	0.7	8	-6	-3.5	-1.5%
> CCO[C@@H]1OC(C(=O)NC2CC2)=C[C@H](c2ccccc2)[C@H]1CCCO
 : -5	-0.8	-8	-9	-2.5	-1.1%
> CCc1ccc2c(COC(=O)C3CC(=O)N(CCc4ccccc4)C3)cc(=O)oc2c1 (configuration not stated)
 : -9	0.1	7	-14	-4.6	2.2%
> O=C(Nc1ccccc1Br)C1CCC(=O)N1Cc1ccccc1Cl (configuration not stated)
 : 5	-0.5	6	-4	-0.9	-17%[38.3 µM]

Structures above containing a thiophene ring, fused or not (two):
The line under a structure holds: Six1-Eya2 blk	TRPML1 ag	CtBP-E1A blk	D2 potentiator	D2 agonist	PINK1 expr mod
> CCOC(=O)c1c(C)nn(-c2ccc(NC(=O)c3cccs3)cc2)c1C
 : -3	1.1	-3	18	0.5	-1.1%
> COc1ccc(N(C(=O)c2ccco2)C(C(=O)NC2CCCC2)c2cccs2)c(OC)c1 (configuration not stated)
 : 9	1.4	1	-8	-3.5	1.0%

The results go on:
The line under a structure holds: Six1-Eya2 blk	TRPML1 ag	CtBP-E1A blk	D2 potentiator	D2 agonist	PINK1 expr mod
> COc1ccc(OC)c(CCNC(=O)c2cccc(NC3=NC4CS(=O)(=O)CC4S3)c2)c1 (configuration not stated)
 : 1	-0.3	1	-1	-7.9	-1.0%
> CCCSc1nc2c(cnn2-c2ccccc2)c(=O)n1N
 : 10	0.3	12	-9	-0.8	0.7%
> O=C(COC(=O)c1cc(Cl)ccc1Cl)Nc1ccc2[nH]c(=O)[nH]c2c1
 : -3	1.7	-20	2	6.2	4.0%
> CC(=O)N1c2ccc(S(=O)(=O)N(C)CC(=O)NCc3ccc(C)cc3)cc2CC1C (configuration not stated)
 : 7	-1.1	-25	-2	2.5	1.4%
> CC(Oc1ccccc1)C(=O)Nc1ccc(S(=O)(=O)N2CCN(C)CC2)cc1 (configuration not stated)
 : -7	3.5	-7	-22	1.0	2.7%
> N#Cc1ccc(C(=O)OCC(=O)N2CCN(C(=O)c3ccco3)CC2)cc1
 : 0	-0.6	6	2	0.8	-1.1%
> COc1cc(C(=O)NCc2ccc(S(N)(=O)=O)cc2)ccc1OCC(=O)N1CCOCC1
 : 5	0.0	x	4	-3.9	0.4%
> CC1=C(/C=C/C(C)=C/C=C/C(C)=C/C(=O)O)C(C)(C)CCC1
 : 14	0.2	2	-8	-5.0	3.5%
> O=C(NCC1CCOCC1)c1ccc(OC2CCN(Cc3ccccn3)CC2)cc1
 : 1	0.7	x	-8	-4.8	1.2%
> O=C(O)c1ccc(-n2cccc2)cc1O
 : -4	-1.3	2	-5	-2.4	-3.2%
> C/C(CC(=O)NCc1ccco1)=N\NC(=O)Cc1ccccc1
 : -1	-0.7	3	-16	-3.5	0.0%
> S=C(c1ccccc1)N1CCCc2ccccc21
 : -14	2.1	-6	-7	3.1	6.4%
> O=C(N/N=C\c1cn(-c2ccccc2)nc1-c1ccccc1)c1ccc2c(c1)OCO2
 : -21	0.8	-2	-11	-3.3	6.5%
> Oc1ccccc1C=NCCCCCCN=Cc1ccccc1O
 : 10	0.0	9	-6	-1.9	-0.7%
> CC(=O)N1CCN(CC(=O)Nc2c(Cl)cc(Cl)cc2Cl)CC1
 : 4	0.7	1	1	1.2	u
> CCOC(=O)c1[nH]c(C)c(C(=O)OCC(=O)N(Cc2ccccc2)C(C)C)c1C
 : -4	0.0	-8	1	-1.2	-0.2%
> NS(=O)(=O)c1ccc(CNC(=O)c2ccncc2)cc1
 : -1	-0.4	-5	-27	-5.6	-0.7%
> Cc1ccc(S(=O)(=O)c2cn(C)c3cc(N4CCOCC4)c(F)cc3c2=O)cc1
 : -1	-0.5	1	1	-0.7	1.1%
> Cc1ncc(CO)c2cc(S(=O)(=O)c3ccc(F)cc3)c(=O)oc12
 : 3	0.3	5	-5	-1.0	0.6%
> CN1C(=O)NC(c2cccc([N+](=O)[O-])c2)C2=C1CCCC2=O (configuration not stated)
 : -1	0.2	5	3	-0.1	-0.3%

The listing continues.
The line under a structure holds: Six1-Eya2 blk	TRPML1 ag	CtBP-E1A blk	D2 potentiator	D2 agonist	PINK1 expr mod
> N#Cc1ccc(CN2CCN(C(=O)C3CC(=O)N(c4ccccc4F)C3)CC2)cc1 (configuration not stated)
 : -1	-0.2	-2	-6	6.8	-0.5%
> Cc1ccc(NC(=O)Cc2cccs2)cc1Cl
 : -1	-0.7	4	-6	-1.1	0.2%
> CC1(C)CNC(=O)c2sc(N3CCCCC3)nc2C1
 : 2	-0.1	1	-12	-3.6	-2.8%[38.3 µM]
> COCCCn1c(C)nnc1SCC(=O)Nc1ccc(C(C)=O)cc1
 : 6	x	x	-42	-4.4	0.3%
> CCOC(=O)c1c(C)[nH]c(NC(=O)N2CCOCC2)c1C
 : 5	0.2	2	-6	-2.5	x
> Cc1ccnc(NC(=O)c2ccc3c(c2)C(=O)N(CC(C)C)C3=O)c1
 : -2	-0.1	-6	-12	1.0	-0.7%
> COc1cccc(/C=C2\Oc3cc(OC(=O)N4CCOCC4)ccc3C2=O)c1
 : 5	-1.1	6	-4	-5.5	0.7%
> COc1ccc(NC(C)=O)cc1S(=O)(=O)Nc1ccc(C(=O)N2CCCC2)cc1
 : -18	1.1	-15	-9	-0.7	-0.2%
> COc1ccc(C(=O)Nc2ccc(Cl)cn2)cc1S(=O)(=O)N1CCCC1
 : -7	-0.1	x	-9	-4.2	0.7%
> Cc1ccc(NC2CC(C)NC(=S)N2)cc1 (configuration not stated)
 : -21	-0.5	3	-5	-2.2	-1.9%
> COc1ccc(CCNC(=O)COC(=O)C2CC2C)cc1OC (configuration not stated)
 : -1	-0.8	x	8	1.6	0.6%
> COc1cccc(S(=O)(=O)Nc2ccc(C(=O)Nc3ccncc3)cc2)c1
 : 0	2.1	6	8	6.1	1.2%
> CC(C)c1nc2ccccc2n1CCC(=O)O
 : 5	0.6	9	4	0.0	x
> CN(C(=O)CC1C(=O)NCCN1Cc1ccoc1)C1CCOCC1 (configuration not stated)
 : 5	0.1	1	-5	-2.6	0.5%
> N#C/C(=C\Nc1ccc2c(c1)OCCO2)c1nc2ccccc2[nH]1
 : -21	0.6	-3	-22	1.1	-1.2%
> CC(=O)Nc1ccc(CN2C(=O)C(C)(C)ON=C2c2ccc(NC(C)=O)cc2)cc1
 : 11	-0.5	-3	-4	-10	-0.9%
> C/C(Cn1nnc([N+](=O)[O-])n1)=N\NC(=O)c1ccccc1Cl
 : 0	1.5	-13	23	7.5	3.5%[38.3 µM]
> COc1cccc(NC(=O)[C@H](Cc2c[nH]c3ccccc23)NC(=O)[C@@H]2Cc3ccccc3CN2)c1
 : -6	x	-2	-48	-5.8	4.9%
> Cc1ccccc1-c1nc(-c2cccnc2)no1
 : 7	-0.5	8	-9	0.0	-0.6%
> O=C(NCCc1ccccc1F)/C(=C/c1cccnc1)NC(=O)c1ccccc1
 : -10	0.6	x	-5	2.9	0.8%

Carrying on.
The line under a structure holds: Six1-Eya2 blk	TRPML1 ag	CtBP-E1A blk	D2 potentiator	D2 agonist	PINK1 expr mod
> CSc1nc2sc3c(c2c(=O)n1CC(C)C)CC(C)(C)OC3
 : -13	-0.3	-2	-6	-8.0	2.5%
> Cc1ccc(S(=O)(=O)N/N=C/c2ccc(OS(=O)(=O)c3ccc(C)c([N+](=O)[O-])c3)cc2)cc1
 : -29	1.4	-23	-15	-6.0	0.0%
> O=C(Cc1ccccc1)NCC(=O)OCC(=O)c1ccc(Cl)cc1
 : 2	0.1	17	-13	-6.4	0.7%
> O=C(Nc1ccc([N+](=O)[O-])cc1)C(=O)Nc1cccc(C(=O)O)c1
 : -2	-1.0	9	2	2.7	0.1%
> O=C(NCC1CCCO1)C1CCN(c2ccc(S(=O)(=O)N3CCCC3)cc2)CC1 (configuration not stated)
 : 3	-0.1	-4	-15	-1.9	3.2%[38.3 µM]
> CCCCC(=O)Nc1cc(OC)c(NC(=S)NC)cc1OC
 : 6	1.0	-1	-9	1.8	0.7%
> N#Cc1c(NC(=O)CSc2nnc(-c3ccco3)n2-c2ccccc2)sc2c1CCC2
 : -1	2.1	0	-12	-0.5	13%
> CCOC(=O)c1oc2ccccc2c1N
 : -3	0.4	0	-6	5.6	-1.1%

Rows are unselected; any-hit rate near 1.3%.
